# Yeast UUG start = alters start codon recognition fidelity in yeast; 0.13% of 350,000 active; S. cerevisiae UUG-firefly luciferase reporter, luminescence/redox ratio; activity score, % at 18.7 µM; AID 602363;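 active means replicate mean at a twofold rise or more, about +100% in these data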;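 further: firefly luciferase made from a UUG start codon reports start codon fidelity; reporter light over untreated wells divided by growth signal over untreated wells; some hits fall short of that in this replicate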
# PABP FP inh = blocks human PABP binding to poly(A) RNA | P11940 | fluorescence polarization | inhibition, % at 35 µM | 1% of 290,000 active | AID 2014;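 active means 50% or more with normal probe brightness, or confirmed in later tests; about a fifth of its hits are not listed in these tables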;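 further: calls also rest on retests at 20 µM and on dose response follow-up; controls were probe without protein and protein plus probe with vehicle; some compounds called inactive have numbers as strong as hits; many hits fall short of the cut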
# Target sequence (P11940 whole entry, looked up): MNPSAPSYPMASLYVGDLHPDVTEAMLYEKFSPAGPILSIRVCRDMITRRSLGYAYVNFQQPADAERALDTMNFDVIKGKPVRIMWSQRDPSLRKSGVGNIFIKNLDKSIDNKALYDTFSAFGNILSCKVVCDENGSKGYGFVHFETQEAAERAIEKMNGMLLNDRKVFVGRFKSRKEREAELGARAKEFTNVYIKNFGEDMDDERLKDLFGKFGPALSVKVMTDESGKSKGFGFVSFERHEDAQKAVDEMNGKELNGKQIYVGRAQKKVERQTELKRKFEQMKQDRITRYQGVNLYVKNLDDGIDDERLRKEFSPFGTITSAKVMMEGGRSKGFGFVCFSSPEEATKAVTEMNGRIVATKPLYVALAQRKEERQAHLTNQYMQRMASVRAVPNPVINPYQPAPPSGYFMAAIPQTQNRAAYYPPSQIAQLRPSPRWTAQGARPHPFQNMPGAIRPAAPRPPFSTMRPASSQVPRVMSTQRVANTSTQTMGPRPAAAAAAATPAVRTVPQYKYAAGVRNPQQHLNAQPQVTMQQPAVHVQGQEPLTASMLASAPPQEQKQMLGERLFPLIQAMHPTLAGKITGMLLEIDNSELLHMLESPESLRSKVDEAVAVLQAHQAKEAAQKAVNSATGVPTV
# CSC inhib = blocks cancer stem cells; cancer stem cell-like cells viability, luminescence; 1.1% of 300,000 active; inhibition, % at 7.5 µM;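 active means mean at 75% or more and at least half the replicates too; tested in HMLE shEcad cells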;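 further: 0% = median of negative and 100% = median of positive control wells; the first replicate is given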
# eIF4H FP inh = inhibitors of RNA binding by human eIF4H | Q15056 | eIF4H fluorescence polarization binding assay | inhibition, % at 35 µM | 0.94% of 290,000 active;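 active means 50% or more with normal probe brightness, or confirmed in later tests; about a fifth of its hits are not listed in these tables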;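 further: calls also rest on retests at 20 µM and on dose response follow-up; 0% = protein and probe with vehicle and 100% = probe without protein; strong numbers were not always called active; many hits fall short of the cut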
# MT1-MMP act inh = blocks activation of human MT1-MMP | P50281 | HT1080 RFP-PRO-GFP cells, GFP/RFP ratio fluorescence, overnight; percent of plate control window, DMSO zero | GFP/RFP ratio change, % at 20 µM | 0.061% of 360,000 active;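 active means GFP/RFP ratio change of at least 30% with cell ATP level not reduced by more than half and red fluorescence within 50% of control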; further: strong numbers were not always called active
#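 Compound: 20 µM single dose, 1% DMSO / System: HT1080 RFP-PRO-GFP cells / Controls: DMSO and RFP-L50D-GFP cell wells / Read-out basis: GFP/RFP fluorescence ratio / Schedule: overnight compound exposure at 37 °C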
# Env fusion inh = HIV envelope-mediated fusion inhibition; HeLa-JRFL Env/CEM21 cell fusion, luciferase; inhibition, % at 12.3 µM; 1.1% of 360,000 active; AID 651610;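 active means mean replicate inhibition score of at least 50 and every replicate individually at or above 50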;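 further: 0% = plate neutral controls and 100% = maraviroc near 300 nM; one replicate is shown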
# Rce1 inh = yeast Ras-converting enzyme inhibition; 0.27% of 290,000 active; yeast membranes, quenched prenylated peptide cleavage fluorescence; Q03530; AID 2563; calls only;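 active means fall in fluorescence gain of 50% or more versus controls, with final raw signal at or below 3038400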;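 further: plate controls were neutral control wells for no effect and wells lacking membranes for full effect; tested at 10 µM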
# Target sequence (Q03530 whole entry, looked up): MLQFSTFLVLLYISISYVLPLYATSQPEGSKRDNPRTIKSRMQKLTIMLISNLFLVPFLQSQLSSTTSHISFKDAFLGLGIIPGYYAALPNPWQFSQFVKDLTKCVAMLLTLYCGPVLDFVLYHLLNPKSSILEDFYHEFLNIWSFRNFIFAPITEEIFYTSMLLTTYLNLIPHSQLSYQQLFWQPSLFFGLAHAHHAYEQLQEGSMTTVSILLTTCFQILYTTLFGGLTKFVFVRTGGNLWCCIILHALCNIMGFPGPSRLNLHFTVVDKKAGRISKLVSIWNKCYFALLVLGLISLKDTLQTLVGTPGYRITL
# eIF4H FP inh retest = second read-out of eIF4H FP inh, no call of its own (marks repeat the call); inhibition, %; compound at 20 µM; confirmation average;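 mean of two retest wells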
# PABP FP inh retest = recorded beside PABP FP inh, whose call it bears; inhibition, %; compound at 20 µM; confirmation repeats;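 mean of two retest wells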
# MT1-MMP act inh RFP = further read-out of MT1-MMP act inh, marked with its call; RFP signal change, %; measured here: RFP expression control read;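 0 = vehicle wells; hits needed this value within 50% of zero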
# * marks the source's active call; other numbers are inactive results; i = inactive; . = not tested or not shown. The list is partial, so the mix of outcomes need not match the whole.
SMILES,Yeast UUG start,PABP FP inh,CSC inhib,eIF4H FP inh,MT1-MMP act inh,MT1-MMP act inh RFP,Env fusion inh,Rce1 inh,others
Cc1cc(CN(C)C(=O)CCc2nnc(Cc3cccc(C(F)(F)F)c3)o2)on1,.,2,-11,-6,-1,2,-26,i,
CN1C(=O)C(C(=O)NC(C)(C)C)C2c3ccccc3OC13CCCCC23 (stereo not drawn),-4,-10,-12,-9,-4,-3,-103,i,
Cc1oc2cc(OCc3cnn(-c4ccccc4)c3)ccc2c(=O)c1Oc1ccccc1F,0,0,-11,-7,-8,-5,15,i,
Cc1oc(-c2ccccc2F)nc1CN1CCC(C(=O)NCc2ccco2)CC1,3,1,-7,10,-1,0,-120,i,
Cc1ccc(S(=O)(=O)N2CCN(CC(=O)N/N=C\c3ccncc3)CC2)cc1,-15,2,4,-4,0,3,3,i,
COc1ccc(CN2C(=NC(=O)CCc3ccccc3)SC3CS(=O)(=O)CC32)cc1 (stereo not drawn),-10,1,-2,10,3,1,6,i,
Cc1ccc(NC(=O)c2ccc3nccnc3c2)c(C)c1,-13,-2,-6,-9,-6,-3,20,i,
S=c1[nH]nc(-c2ccncc2)n1/N=C/c1ccccc1,.,-1,4,0,1,4,.,i,
O=C(Nc1cc(S(=O)(=O)N2CCCCC2)ccc1Cl)C1COc2ccccc2O1 (stereo not drawn),-12,.,-14,.,-3,-10,.,.,
Cc1nc(SCC(=O)Nc2c(C)n(C)n(-c3ccccc3)c2=O)c(C#N)c(C)c1C,-2,.,-22,.,-5,-1,.,.,
O=C(OCc1cnc(Cl)s1)c1ccc(Cl)cc1,-17,1,-1,2,-2,7,.,i,
COc1ccc(NC(=O)N2c3ccccc3CC2C)cc1OC (stereo not drawn),-15,8,11,9,5,4,-29,i,
Cc1cnc(C(=O)OCC(=O)c2ccc(Cl)cc2)cn1,-16,3,-5,-14,1,5,.,i,
Cc1cccc(C)c1NC(=S)N(Cc1cccs1)C1CCCC1,.,6,-9,3,6,4,1,i,
CSc1cccc(NC(=O)NCc2cccc(CNC(=O)Nc3cccc(SC)c3)c2)c1,.,-2,.,-4,-2,-17,-11,i,
COc1cc(OC)c(S(=O)(=O)N2CCCCC2)cc1S(=O)(=O)N1CCCCC1,3,3,-6,-2,1,3,.,i,
COc1cc(CCN2C(=O)N[C@@H](CCc3ccccc3)C(C(C)=O)=C2C)cc(OC)c1OC,.,-2,-10,-4,.,.,.,.,
Cc1nnc(NC(=O)Nc2ccc(Cl)c(Cl)c2)s1,.,3,27,2,-10,-24,33,i,
Nc1nc(SCC(=O)N2CCOCC2)[nH]c(=O)c1-c1ccccc1,51,-7,9,0,0,1,3,i,
S=C(NCC1COc2ccccc2O1)Nc1ccc(Br)cc1 (stereo not drawn),-45,-7,59,4,6,4,17,i,
COc1cc(SC)ccc1C(=O)NNC(=O)c1cc(C)oc1C,-13,.,.,.,2,4,-44,i,
CCN(C(=O)CSc1ncccc1C(=O)O)C1CCCCC1,.,-1,-15,2,-2,1,7,i,
CCOCCCNC(=O)C(NC(=O)Cc1c[nH]c2ccccc12)c1ccccc1 (stereo not drawn),.,-16,-19,2,-8,3,21,i,
CN(CCc1nc2ccc(Cl)cc2[nH]1)Cc1nc(CC2CC2)no1,.,-12,6,-8,-3,-9,-2,i,
Cc1cc(/C=c2\sc3nc4ccccc4n3c2=O)c(C)n1-c1ccc(C(=O)O)cc1,.,0.7*,.,64,-5,-3,-2,i,eIF4H FP inh retest=7;PABP FP inh retest=95*
O=C(COc1ccc(C(=S)N2CCOCC2)cc1Cl)Nc1ccccc1Cl,.,-13,-2,9,5,0,-21,i,
COC(=O)Cn1nnc(N2CCOCC2)n1,5,-8,2,-11,2,4,-13,i,
C(=N\Nc1ccc2nncn2n1)/c1ccccn1,-9,-12,18,5,7,4,-3,i,
O=C(COC(=O)Cn1nnc2ccccc21)NC1CCCC1,-10,0,-9,-12,0,4,-1,i,
COc1ccc(CN2CCN(Cc3ccc(C(F)(F)F)cc3)CC2)c(OC)c1,3,11,60,11,-1,-2,7,i,
COc1ccccc1N1CCN(C(=O)CSc2nc3ccccc3nc2N2CCC(C)CC2)CC1,1,12,31,-5,-10,-3,23,.,
Cc1ccc(OC(C)C(=O)N(C)Cc2ccccc2)c([N+](=O)[O-])n1 (stereo not drawn),-22,7,-14,3,-1,2,-2,i,
N#CC1(Nc2cccc(Cl)c2)CCCC1,-22,.,.,.,1,0,16,.,
CC(C)CN(CC(C)C)C(=O)c1cc(S(=O)(=O)N2CCCCC2)c[nH]1,.,11,-15,-6,-6,-5,9,i,
O=C(O)c1ccc(Cl)c(S(=O)(=O)Nc2ccc(OCc3ccccc3)cc2)c1,-10,11,0,3,1,1,5,i,
Cc1c([N+](=O)[O-])c(C/C=N/O)nn1C,-4,-6,.,-6,0,4,1,i,
CCN=c1scc(-c2ccco2)n1/N=C/c1ccc(O)cc1,-19,17,-3,1,-6,1,-215,i,
COC(=O)CC1C(=O)NCCN1C(=S)Nc1cc(C)cc(C)c1 (stereo not drawn),-15,-1,0,-13,3,6,-38,i,
COc1ccc(Oc2cccc(Cl)c2CNC(=O)c2ccccc2C(=O)O)cc1,1,5,4,-6,-4,0,-1,i,
CCOC(=O)C1CCN(c2nc3cc(OC)ccc3cc2C#N)CC1,-14,15,1,-1,1,-4,14,i,
CN(CC(=O)Nc1ccc(F)cc1)C(=O)CSc1nccn1C,.,.,-13,.,3,6,.,i,
CC(C)(C)c1ccc(C(=O)NCCC(=O)NCc2ccc(F)cc2)cc1,-26,.,.,.,0,-5,12,.,
COc1cccc(/C=N/NC(=O)c2ccoc2C)c1,-21,9,6,0,1,1,-17,i,
Cn1c(N)c(C(=O)COc2ccc(Cl)cc2Cl)c(=O)n(C)c1=O,.,30,-6,-1,-5,-8,10,i,
COc1ccc(-n2nc(C(N)=O)c(O)cc2=O)cc1,.,-21,-5,-6,0,3,10,i,
Cc1ccc(N(Cc2cc3cccc(C)c3[nH]c2=O)S(=O)(=O)c2ccccc2)c(C)c1,-11,35,-3,0,-5,-3,.,i,
Cc1cccc(OC2(c3ccccc3)OC(=O)c3ccccc32)c1C (stereo not drawn),-10,-8,-13,-15,-2,-3,4,i,
Cc1onc(-c2c(F)cccc2Cl)c1C(=O)N1CCCC1,1,.,.,.,-3,4,-30,.,
COc1ccc(N(C(=O)c2cccnc2)S(=O)(=O)c2cc(OC)ccc2OC)cc1,5,-10,-8,-10,3,5,-15,i,
CCCCn1nnc(NC(=O)c2ccc(-c3ccccc3)cc2)n1,-10,17,66,-4,-3,-3,.,i,
O=C1c2c([N+](=O)[O-])cc([N+](=O)[O-])cc2S(=O)N1Cc1ccccc1 (stereo not drawn),-28,28,-12,-1,-1,-1,3,i,
CCCc1cc(=O)[nH]c(SCc2nc3ccccc3s2)n1,-10,0,-11,-7,5,0,-24,i,
O=C(NC1CCCCCC1)c1ccc(=O)n(Cc2ccccc2)n1,6,7,9,8,2,-3,10,i,
COC(=O)c1ccc(Cn2nnc3c(=O)[nH]c(C4CCCN(S(=O)(=O)c5ccc(C)cc5)C4)nc32)cc1 (stereo not drawn),-1,13,.,-7,-9,-3,1,i,
COCCn1c(=S)[nH]c2ncccc2c1=O,4,-8,-17,2,-1,2,-17,i,
CCCCc1nnc(NC(=O)CSc2nc(O)c(-c3ccccc3)c(=O)[nH]2)s1,.,18,-13,-2,4,8,2,i,
COc1ccccc1CNC(=O)C1CCCCN1S(=O)(=O)c1ccccc1 (stereo not drawn),3,6,1,0,3,-2,-6,i,
O=C(NCc1ccc(F)cc1)c1cccc(S(=O)(=O)N2CCOCC2)c1,-14,.,-13,.,-1,-2,.,.,
CCOC(=O)c1sc(=S)n(-c2ccccc2)c1C,-14,-14,-5,-5,-1,0,-1,i,
CCOCCCN(C(=O)c1snc(C(N)=O)c1N)C(C(=O)NC1CCCC1)c1ccc(F)cc1 (stereo not drawn),-24,1,-4,-4,2,1,9,i,
# Other structures follow:
SMILES,Yeast UUG start,PABP FP inh,CSC inhib,eIF4H FP inh,MT1-MMP act inh,MT1-MMP act inh RFP,Env fusion inh,Rce1 inh,others
CN(C)CCCOC(=O)c1cc2ccccc2o1,-5,6,1,9,0,-2,.,i,
CCOc1ccccc1NC(=O)C1C2CCC3C(CCC21)C3(Cl)Cl (stereo not drawn),.,-11,-19,9,-2,0,14,i,
CCOc1ccc(NC(=O)COC(=O)CC2CC3CCC2C3)cc1 (stereo not drawn),6,.,-6,.,-3,0,.,.,
Cc1onc(-c2c(F)cccc2Cl)c1C(=O)N=C(N)N1CCCC1,-4,2,-20,12,2,1,-3,i,
CC(NC(C)c1ccccc1Cl)C(=O)Nc1cccc(S(=O)(=O)N2CCCCC2)c1 (stereo not drawn),11,.,.,.,9,-3,14,.,
O=C(CS(=O)CC(=O)Nc1cccnc1)Nc1ccc(F)cc1 (stereo not drawn),-10,17,-2,-3,-3,-2,-16,i,
Cc1nnc(NC(=O)CN2CCN(Cc3c(Cl)cccc3Cl)CC2)s1,-10,-4,-15,-5,-1,0,-3,i,
O=S(=O)(c1ccc(Oc2ccc(F)c(Cl)c2)nc1)N1CCOCC1,-4,.,5,.,-1,0,.,i,
Cc1ccc2nc(CCc3nc4ccc(C)cc4[nH]3)[nH]c2c1,-21,-4,6,-3,10,-1,-5,i,
Cc1sc2nc(CN3CCC(C)CC3)nc(Cl)c2c1C,.,8,-4,-8,.,.,-35,i,
O=C(CSc1nnc(-c2ccccc2)o1)n1c2c(c3ccccc31)CCCC2,.,3,.,-8,.,.,.,i,
COc1cc2c(cc1OC)C1CC(=O)C(CC(C)C)CN1CC2 (stereo not drawn),-13,10,-19,0,-1,-1,-9,i,
CCOC(=O)c1cc(OCC)c2c(ccc3cc(OC)ccc32)n1,5,.,.,.,1,-1,12,.,
CC1CCC(NC(=O)CCCCn2c(=O)[nH]c3ccsc3c2=O)CC1 (stereo not drawn),-10,10,8,-1,-1,0,4,i,
COC(=O)c1c(C(=O)OC)c(-c2cccc(Cl)c2)n2c1CS(=O)C2 (stereo not drawn),.,4,-6,-5,-2,2,6,i,
COc1cc(C(=O)NNC(=O)COc2ccc(C)cc2)ccc1OCC(=O)N1CCOCC1,-6,.,2,.,1,6,-5,.,
Cc1[nH]c(=O)[nH]c(=O)c1S(=O)(=O)N1CCCC(C(=O)NCc2ccccc2Cl)C1 (stereo not drawn),-9,-8,-15,2,0,2,0,i,
O=C(O)c1ccc(NC(=O)c2cn(-c3ccccc3)nc2-c2ccc(Cl)cc2)cc1,-9,-6,.,6,2,-3,11,i,
Cc1c(NC(=O)C(C)N2C(=O)C3C4C=CC(C4)C3C2=O)c(=O)n(-c2ccccc2)n1C (stereo not drawn),-2,-13,-8,-12,-2,4,-8,i,

# Six records drawn at random from the list so far, as already listed:
SMILES,Yeast UUG start,PABP FP inh,CSC inhib,eIF4H FP inh,MT1-MMP act inh,MT1-MMP act inh RFP,Env fusion inh,Rce1 inh,others
O=C(CSc1nnc(-c2ccccc2)o1)n1c2c(c3ccccc31)CCCC2,.,3,.,-8,.,.,.,i,
CN(CCc1nc2ccc(Cl)cc2[nH]1)Cc1nc(CC2CC2)no1,.,-12,6,-8,-3,-9,-2,i,
CN(CC(=O)Nc1ccc(F)cc1)C(=O)CSc1nccn1C,.,.,-13,.,3,6,.,i,
CN1C(=O)C(C(=O)NC(C)(C)C)C2c3ccccc3OC13CCCCC23 (stereo not drawn),-4,-10,-12,-9,-4,-3,-103,i,
O=C(O)c1ccc(Cl)c(S(=O)(=O)Nc2ccc(OCc3ccccc3)cc2)c1,-10,11,0,3,1,1,5,i,
N#CC1(Nc2cccc(Cl)c2)CCCC1,-22,.,.,.,1,0,16,.,

# Source: PubChem (several laboratories)
